esBAF inh – blocks esBAF chromatin remodeling in mouse ES cells | reporter increase, % at 12.5 µM | AID 602393 | 2% of 350,000 active | Bmi1-luciferase knock-in reporter, 24 h; 100% = twice the neutral-well signal; in the data active = activation above about 40%; inconclusive = no clear call, values can overlap the other calls;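 also: 0% = median of the plate's neutral control wells and 100% = double that signal; a rise in the Bmi1 reporter signal indicates esBAF inhibition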
RAD52 inh – inhibitors of human RAD52 DNA annealing; inhibition, % at 18.7 µM; AID 651710; 0.46% of 360,000 active; recombinant RAD52 DNA annealing, FRET fluorescence;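 active = every replicate showing at least 50% inhibition; inconclusive = mean inhibition at least 50% but not in every replicate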
E-sel inducer – E-selectin induction on HUVECs; P16581; HUVEC E-selectin immunofluorescence imaging; normalized: neutral wells 0, TNF-alpha wells 100; activation, % at 7.58 µM; 0.37% of 260,000 active; AID 686992;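 active = mean E-selectin-positive cell signal at least 10% of the positive control, reached in at least 60% of replicates, without over 20% cell loss; inconclusive = no rule given, readout overlaps actives, possibly toxicity-flagged; inactive = the rest, including those meeting only one limit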;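 also: in these data hits start at about 27%; measured in HUVEC primary endothelial cells; signal is the percent of cells scored E-selectin positive by PE staining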
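Test system – human umbilical vein endothelial cells (HUVEC), E-selectin induction · Input – 3,000 HUVEC seeded per well · Buffer or medium – EGM-2, gelatin · Compound dosing – single-point compound dose · Detection – immunofluorescence imaging · Measure – percent E-selectin-positive cells · Controls – TNF-alpha high, DMSO low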
PglD DTNB – blocks C. jejuni PglD acetyltransferase activity | 0.098% of 360,000 active | inhibition, % at 12.5 µM | purified PglD enzyme, DTNB colorimetric CoA detection; in the data active = inhibition above about 16%, passing the limit was not always enough; inconclusive = no clear call, values can overlap the other calls; also: strong numbers were not always called active
Casp6 inh – caspase-6 (human) enzyme inhibition; purified caspase-6, Z-VEID-R110 cleavage fluorescence; P55212; inhibition, % at 12.5 µM; AID 686996; 0.53% of 350,000 active;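 active = mean inhibition across replicates at least about 35%, with every replicate also reaching that limit, limit read from the data; inconclusive = only one of the two criteria met; inactive = neither criterion met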;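 also: 0% = median of neutral control wells and 100% = no fluorescence left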
Target sequence (P55212 24-179 limits assumed): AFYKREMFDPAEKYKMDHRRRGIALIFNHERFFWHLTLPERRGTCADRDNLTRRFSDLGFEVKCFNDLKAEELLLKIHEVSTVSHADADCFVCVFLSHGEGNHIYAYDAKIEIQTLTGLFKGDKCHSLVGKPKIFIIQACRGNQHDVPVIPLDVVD
Target sequence (P55212 194-293 limits assumed): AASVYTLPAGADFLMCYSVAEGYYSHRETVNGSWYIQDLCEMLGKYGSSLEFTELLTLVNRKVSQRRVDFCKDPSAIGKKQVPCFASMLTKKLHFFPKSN
RAD54 inh – blocks human RAD54 Holliday junction branch migration; Q92698; FAM/BHQ fluorescence; inhibition, % at 10.4 µM; 0.14% of 360,000 active; AID 602329;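 active = mean normalized replicate activity at least 40 and at least half of replicates scoring 40 or more; inconclusive = only one of the two criteria met; inactive = mean below 40 and under half of replicates reaching 40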;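 also: 0% = median of neutral control wells and 100% = median of positive control wells; inhibitors cause a drop in the FAM fluorescence signal; in these data hits start at about 50%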
Target sequence (Q92698 whole entry, looked up): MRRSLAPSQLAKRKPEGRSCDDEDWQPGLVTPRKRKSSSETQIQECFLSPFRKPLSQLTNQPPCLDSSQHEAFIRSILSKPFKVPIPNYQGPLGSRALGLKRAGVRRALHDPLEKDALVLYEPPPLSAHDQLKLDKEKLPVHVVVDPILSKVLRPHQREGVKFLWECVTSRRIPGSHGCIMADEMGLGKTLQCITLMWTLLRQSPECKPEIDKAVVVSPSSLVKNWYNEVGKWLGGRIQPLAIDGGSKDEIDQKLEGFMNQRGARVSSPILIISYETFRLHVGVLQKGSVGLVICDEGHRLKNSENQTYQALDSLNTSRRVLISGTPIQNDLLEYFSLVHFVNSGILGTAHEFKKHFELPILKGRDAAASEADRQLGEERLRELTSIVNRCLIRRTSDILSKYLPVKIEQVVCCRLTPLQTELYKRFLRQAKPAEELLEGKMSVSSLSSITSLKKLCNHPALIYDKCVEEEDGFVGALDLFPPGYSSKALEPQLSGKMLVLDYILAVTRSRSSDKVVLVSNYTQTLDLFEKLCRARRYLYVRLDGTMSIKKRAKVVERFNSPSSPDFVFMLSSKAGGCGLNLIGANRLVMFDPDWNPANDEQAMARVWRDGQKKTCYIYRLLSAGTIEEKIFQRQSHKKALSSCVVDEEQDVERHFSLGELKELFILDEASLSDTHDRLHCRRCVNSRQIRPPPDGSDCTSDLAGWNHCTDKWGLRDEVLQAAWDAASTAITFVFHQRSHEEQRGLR
ERp5 inh – blocks human ERp5 reductase activity on insulin; Q15084; ERp5 insulin aggregation, absorbance 650 nm, 90 min; inhibition, % at 9.99 µM; 0.05% of 350,000 active;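 active = mean replicate inhibition above about 25%, with every replicate also reaching it, limit read from the data, passing the limit was not always enough; inconclusive = only one of those two criteria met; inactive = neither criterion met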
* hit, by the source's call; ? = inconclusive; / = no result given; & = joins results of further samples. The list is partial; rates above refer to the full screens.

SMILES | esBAF inh | RAD52 inh | E-sel inducer | PglD DTNB | Casp6 inh | RAD54 inh | ERp5 inh
COc1ccc(C(CNc2ncnc3sccc23)N(C)C)cc1OC (stereo unspecified) | 1 | -12 | -0.1 | 4 | -5 | -2 | 3
O=C(Cn1cnc2sc3c(c2c1=O)CCCC3)NCC(=O)Nc1ccc(F)cc1F | -3 | -11 | 0.0 | -2 | 1 | -7 | 22
COc1ccccc1CNC(=O)CN1C(=O)COc2ccc(S(=O)(=O)N3CCCCC3)cc21 | -2 | -24 | / | -1 | 5 | 3 | 2
NC(=O)c1ccccc1OCc1cccc2ccccc12 | 24 | -4 | / | 6 | 2 | -3 | -3
Cc1ccc(OCc2nnc(SCC(=O)Nc3ccc4c(c3)OCCO4)n2Cc2ccco2)cc1 | 5 | / | / | -3 | / | 8 | /
CO[C@@H]1CN(C)C(=O)c2cc(NS(=O)(=O)CC(F)(F)F)ccc2OC[C@@H](C)N(Cc2cccnc2)C[C@@H]1C | 0 | -13 | -0.5 | 1 | -4 | 9 | 7
CN(C)CCCN(C(=O)c1ccc([N+](=O)[O-])o1)c1nc2cc3c(cc2s1)OCO3 | 2 | 75* | -0.4 | -1 | 13 | ? | 3
Cc1ccnc(NC(=O)c2cccc(S(=O)(=O)Nc3ccc(C)cc3C)c2)c1 | / | -14 | -0.1 | -1 | 4 | -3 | 3
COc1ccc(/C=C2\CCc3c2nc2ccccc2c3C(=O)O)cc1OC | / | -30 | / | / | 9 | / | -4
O=C(C[C@@H]1C[C@H]2c3cc(NC(=O)NC4CCCCC4)ccc3O[C@H]2[C@@H](CO)O1)NCc1ccccc1 | 1 | -6 | -0.1 | -1 | -2 | -1 | 1
COc1ccccc1NC(=O)CSc1nnc(-c2ccccn2)o1 | 17 | -3 | 0.3 | 7 | -1 | 6 | 1
CCn1cc(C(=O)O)c(=O)c2cc(F)c(N3CCN(C)CC3)cc21 | -3 | 5 | / | 3 | 1 | 29 | 9
COCC(=O)N(C)C[C@@H]1Oc2cc(C#Cc3cccnc3)ccc2S(=O)(=O)N([C@@H](C)CO)C[C@@H]1C | -3 | -8 | 0.3 | 5 | 0 | 3 | -6
COCCn1c(SCc2cnc(-c3ccccc3)s2)nnc1-c1ccncc1 | 5 | / | / | 6 | / | 5 | /
O=C(O)c1c2c(nc3ccccc13)/C(=C/c1cccc([N+](=O)[O-])c1)CCC2 | -2 | 9 | / | 9 | 3 | -10 | -7
Cc1cc(=O)oc(C)c1C(=O)NCC1CCCO1 (stereo unspecified) | 12 | / | / | -5 | / | -4 | /
O=C(Nc1ccc(S(=O)(=O)Nc2ccccn2)cc1)c1cccc(Cl)c1 | 6 | -1 | 0.2 | -4 | 5 | 8 | -2
Cc1cc(-c2csc(NC(=O)c3ccc(C#N)cc3)n2)c(C)n1Cc1ccco1 | / | -20 | / | / | 21 | / | -1
CC1CCCN(C(=O)COC(=O)Cc2c(F)cccc2Cl)C1 (stereo unspecified) | 45* | -7 | 0.0 | -7 | -3 | -8 | 2
CCOc1cc(NC(=O)c2ccccn2)c(OCC)cc1NC(=O)c1ccc(OC)cc1 | / | -12 | / | / | -2 | / | 5
COc1cc(Cc2nccc3cc(OC)c(OC)cc23)c(S(=O)(=O)O)cc1OC | 1 | 0 | 0.6 | -1 | 16 | -10 | -1
C[C@H]1CN([C@@H](C)CO)C(=O)c2cc(-c3cncnc3)cnc2O[C@H]1CN(C)C(=O)c1ccccc1F | -6 | 7 | 0.0 | -1 | 1 | 3 | -2
CC(C)[N+]1(C)[C@@H]2CC[C@H]1CC(OC(=O)C(CO)c1ccccc1)C2 (stereo partly specified) | -2&-2&-4 | 3&11 | 0.2&2.1 | -4&0&-4 | 3&-4 | 0&-11&-1 | -3&1
CC(=O)c1ccc(NC(=O)c2cnsn2)cc1 | / | -13 | 2.8 | / | -6 | / | -1
CC(C(=O)N1CCOCC1)N1C(=O)c2ccccc2C1=O (stereo unspecified) | -6 | / | / | -3 | / | 0 | /

An excerpt from above, showing only RAD52 inh and RAD54 inh.
SMILES | RAD52 inh | RAD54 inh
CCn1cc(C(=O)O)c(=O)c2cc(F)c(N3CCN(C)CC3)cc21 | 5 | 29
COCC(=O)N(C)C[C@@H]1Oc2cc(C#Cc3cccnc3)ccc2S(=O)(=O)N([C@@H](C)CO)C[C@@H]1C | -8 | 3

New compounds follow.
SMILES | esBAF inh | RAD52 inh | E-sel inducer | PglD DTNB | Casp6 inh | RAD54 inh | ERp5 inh
COc1cc(NC(=O)c2ccc(Br)o2)c(C(=O)O)cc1OC | -10 | / | / | 1 | / | -8 | /
COc1ccc(/C=C2/Sc3ccc(C(=O)N4CCOCC4)cc3NC2=O)cc1OC | 0 | -41 | / | -5 | 1 | 2 | 1
O=C(COC(=O)[C@@H]1CC(O)CN1S(=O)(=O)c1ccc([N+](=O)[O-])cc1)NC12CC3CC(CC(C3)C1)C2 (stereo partly specified) | / | -1 | -2.3 | -6 | 4 | -12 | -2
CCc1cccc(C)c1NC(=O)CSc1nnc(-c2ccco2)n1N | -9 | / | / | 3 | / | -14 | /
CCOC(=O)C1CCN(C(=O)/C=C/c2ccc(OC)cc2)CC1 | 3 | / | / | -1 | / | 0 | /
CC1CN(C2CC(C)(C)NC(C)(C)C2)CCC1=O (stereo unspecified) | 1 | / | / | / | / | -18 | /
COc1cccc(Nc2nc(NCC3CCCO3)c3ccccc3n2)c1 (stereo unspecified) | -31 | / | / | / | / | 23 | /
CCOC(=O)/C(C#N)=C/c1cn(CCC(=O)O)nc1-c1ccccc1 | -7 | / | / | -8 | / | -2 | /
CN(C)CCN(C(=O)c1ccc(S(=O)(=O)N(C)C)cc1)c1nc2cc3c(cc2s1)OCCO3 | 26 | -5 | 0.5 | 1 | -3 | 23 | -1
O=c1oc2ccccc2cc1-c1csc(Cc2nc(-c3ccc(Cl)cc3)cs2)n1 | 3 | / | / | 3 | / | -9 | /
C[C@H]1CN([C@@H](C)CO)C(=O)c2cccc(NC(=O)c3ccncc3)c2O[C@H]1CN(C)Cc1ccc(-c2ccccc2)cc1 | -6 | -10 | -0.4 | -1 | -5 | 4 | -1
Cc1sc2ncn(CC(=O)NCCCC(=O)N3CCC(C(N)=O)CC3)c(=O)c2c1C | -2 | -8 | -0.2 | 0 | 3 | 9 | -1
CCSc1ccc(C(=O)Nc2cccc(C)n2)cc1[N+](=O)[O-] | / | / | -0.1 | / | / | / | /
Cc1ccc(S(=O)(=O)N(C)C[C@H]2Oc3ccc(NC(=O)Cn4cnnn4)cc3C(=O)N([C@@H](C)CO)C[C@@H]2C)cc1 | / | -13 | 0.1 | / | -1 | / | -1
CC(C)NC(=O)NC(=O)CSc1nnc(C(F)(F)F)n1C | / | -7 | / | / | 1 | / | 6
CC(=O)NS(=O)(=O)c1cccnc1Nc1cccc(Cl)c1 | -4 | / | / | 1 | / | 0 | /
O=C(OCC(=O)c1ccc[nH]1)c1ccc([N+](=O)[O-])cc1 | 4 | -1 | / | 1 | 0 | -2 | 13
COc1ccc(-c2cnc(N)n2CC2CCCO2)cc1 (stereo unspecified) | 14 | / | 0.1 | 3 | / | 6 | /
O=[N+]([O-])c1cc(S(=O)(=O)N2CCOCC2)ccc1NS(=O)(=O)c1ccccc1 | -5 | -8 | 1.7 | -3 | -2 | 0 | 2
COc1ccc(C2SCC(C(=O)O)N2C(C)=O)cc1 (stereo unspecified) | -2 | / | / | 0 | / | 3 | /
CCn1c(COc2cccc(C)c2)nnc1SCC(=O)Nc1cccc(C(=O)O)c1 | 3 | / | / | -2 | / | 2 | /
COc1cc(C2Nc3ccccc3C(=O)N2NS(C)(=O)=O)c([N+](=O)[O-])cc1OC (stereo unspecified) | -4 | -2 | 0.0 | 3 | 4 | 17 | 2
C/C(=N\Nc1nc2ccccc2[nH]1)c1ccccn1 | 8 | -18 | / | 2 | 8 | -2 | 3
Cc1c(NS(=O)(=O)c2cccc(C(=O)Nc3ccccc3)c2)c(=O)n(-c2ccccc2)n1C | -4 | -2 | -0.2 | 3 | 1 | 1 | 4
Cc1cc([N+](=O)[O-])c(C)cc1-c1ccc(/C=N/NC(=O)c2cccnc2)o1 | / | -7 | / | / | 6 | / | 0

3 compounds from above, ordered by the value under esBAF inh, falling:
Molecule	esBAF inh	RAD52 inh	PglD DTNB	Casp6 inh	ERp5 inh
O=c1oc2ccccc2cc1-c1csc(Cc2nc(-c3ccc(Cl)cc3)cs2)n1	3	/	3	/	/
CCc1cccc(C)c1NC(=O)CSc1nnc(-c2ccco2)n1N	-9	/	3	/	/
COc1cccc(Nc2nc(NCC3CCCO3)c3ccccc3n2)c1 (stereo unspecified)	-31	/	/	/	/

Back to the main list, starting four compounds before the break.
SMILES | esBAF inh | RAD52 inh | E-sel inducer | PglD DTNB | Casp6 inh | RAD54 inh | ERp5 inh
COc1cc(C2Nc3ccccc3C(=O)N2NS(C)(=O)=O)c([N+](=O)[O-])cc1OC (stereo unspecified) | -4 | -2 | 0.0 | 3 | 4 | 17 | 2
C/C(=N\Nc1nc2ccccc2[nH]1)c1ccccn1 | 8 | -18 | / | 2 | 8 | -2 | 3
Cc1c(NS(=O)(=O)c2cccc(C(=O)Nc3ccccc3)c2)c(=O)n(-c2ccccc2)n1C | -4 | -2 | -0.2 | 3 | 1 | 1 | 4
Cc1cc([N+](=O)[O-])c(C)cc1-c1ccc(/C=N/NC(=O)c2cccnc2)o1 | / | -7 | / | / | 6 | / | 0
CC(=O)Nc1ccc(NC(=O)CN(C)CCC#N)cc1 | / | / | / | -4 | / | 6 | /
CCOC(=O)c1cnc(-n2nc(C)cc2C)nc1NCCO | -9 | / | / | -3 | / | -7 | /
O=C(NCc1ccc(F)cc1)C1CCN(C(=O)NCc2ccccc2)CC1 | -7 | / | / | -2 | / | 6 | /
O=C(O)c1c2c(nc3ccccc13)/C(=C/c1ccccc1[N+](=O)[O-])CCC2 | 0 | -5 | / | 4 | 5 | 5 | 3
COc1ccc(OC)c(CC(=O)N2CCc3cc(OC)c(OC)cc3C2)c1 | 8 | 2 | 0.1 | -1 | 1 | -9 | 1
Cc1ccccc1-c1cc(C(=O)n2cccn2)c2cc(Cl)ccc2n1 | -14 | / | / | 0 | / | 0 | /
C[C@H](NC(=O)c1cc2c(cn1)[nH]c1ccccc12)C(=O)O | 5 | -18 | 1.7 | -1 | 4 | -5 | -4
O=C1C(CCS(=O)c2ccccc2)C(=O)N(c2ccccc2)N1c1ccccc1 (stereo unspecified) | 1 | -18 | 0.7 | 1 | 3 | 4 | -7
CN(Cc1nc2ccccc2c(=O)[nH]1)Cc1nc2ccsc2c(=O)[nH]1 | / | -20 | / | / | -3 | / | 3
CCOc1cc(C(c2c(C)[nH][nH]c2=O)c2c(C)[nH][nH]c2=O)cc([N+](=O)[O-])c1O | 5 | -4 | 12 | 5 | -2 | -1 | -1
Cc1ccc(S(=O)(=O)N(C)C)cc1N | -5 | -14 | 0.4 | 0 | 2 | 0 | -6
CCN(CC)S(=O)(=O)c1cc(C(=O)n2cccn2)c(Cl)cc1Cl | -5 | -8 | / | 3 | -2 | 4 | 0
Cc1ccccc1C(OCCN(C)C)C1CCCCC1 (stereo unspecified) | / | / | 2.4 | / | / | / | /
O=C(/C=C/c1cccc([N+](=O)[O-])c1)c1cccs1 | 19 | -10 | / | -3 | 1 | 10 | -8
O=C(Nc1ccsc1C(=O)O)c1ccc(Cl)cc1 | 61* | -6 | -1.6 | -4 | 1 | -3 | 2
O=C(NCCCN1CCOCC1)c1ccc(CS(=O)(=O)Cc2ccccc2Cl)o1 | 1 | / | / | -6 | / | 1 | /
COc1cc2c(cc1OC)CN(C(=O)CN1CCN(S(=O)(=O)c3ccc(C)c(C)c3)CC1)CC2 | 3 | -39 | / | -1 | 5 | 12 | 1
COc1cnc(-c2ccccn2)nc1Sc1c(Cl)cccc1Cl | -7 | / | / | -1 | / | 0 | /
